Vif TR-FRET: HIV-1 Vif–A3G interaction blockers – biochemical, TR-FRET, GST-Vif 1-94, biotin-A3G peptide, dose response retest, primary screen (AID 1117319); TR-FRET GST-Vif / biotin-A3G peptide binding; higher % means a stronger effect; test concentration not given here; strong numbers were not always called active; inhibition, %; hits with a dose series show IC50 in µM; 260,000 tested, 0.57% active;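 active = above the screen mean plus three standard deviations and confirmed in dose response; inconclusive = results disagree or hit not tested in dose response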;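 also: Vif residues 1-94 fused to GST binding biotinylated APOBEC3G peptide 110-148; 0% = full assay without inhibitor and 100% = GST in place of GST-Vif; retest series ran down from 100 µM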
Beta cell apopt: beta cell apoptosis inhibition; INS-1E cytokine-induced death, ATP luminescence, 48 h; percent of positive-control rescue, neutral wells zero; 300,000 tested, 0.8% active; AID 435005; protection from apoptosis, % (no concentration beside the values);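 active = all replicates at 75% or more, or half of them and the mean; inconclusive = half reach 75% but not the mean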;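 also: 0% = cytokine-treated negative control wells and 100% = positive control rescue; higher means more ATP so stronger rescue from cytokine killing; wells of about 40 µL received 100 nL stock; the first replicate is given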
Bfl-1 A1 inh: inhibitors of the anti-apoptotic protein A1, read as caspase activation. MEF A1-2A-BIM cells, Caspase-Glo 3/7 luminescence, 3 h; percent of clofoctol response, vehicle zero. AID 2462. 330,000 tested, 0.066% active. caspase activation, % (no concentration beside the values);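 active = over half of replicate activation scores above 10%, or exactly half above 10 with the replicate mean above 10; inconclusive = replicate mean below 10 yet half the replicates above 10; inactive = over half of replicates below 10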;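 also: wells of about 30 µL received 50 nL stock; many hits fall short of the cut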
T cruzi inh: T. cruzi replication inhibition. 300,000 tested, 1.4% active. T. cruzi beta-gal in NIH3T3, luminescence, 90 h. inhibition, % (no concentration beside the values);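 active = mean inhibition across valid replicates above about 55%, limit read from the data; inconclusive = mean below that limit but half or more replicates reach it; inactive = mean below it, under half of replicates reach it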;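 also: signal also drops with host cell toxicity which is not excluded here; 0% = plate median of DMSO wells and 100% = zero luminescence signal; higher percent means less beta-gal luminescence so fewer parasites; stock transfer was 50 nL into about 50 µL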
RanGTP-Impb inh: inhibitors of RanGTP-importin-beta interaction, primary screen, biochemical, FRET, CFP-Ran, YFP-importin-beta, homogeneous; inhibition, % (test concentration not listed); 300,000 tested, 1.1% active; cell-free CFP-Ran/YFP-importin-beta FRET ratio;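 active = most replicates above 15%; inconclusive = exactly half above 15%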;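 also: 0% = DMSO wells and 100% = Ran loaded with GDP instead of GTP; wells of about 40 µL received 100 nL stock; the first replicate is given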
Calb FLC: affects C. albicans growth with fluconazole; 300,000 tested, 0.57% active; C. albicans CaCi-2 (fluconazole-resistant clinical isolate) + fluconazole, Alamar Blue growth, 48 h; growth inhibition, % (no concentration beside the values);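 active = most replicates above 75%; inconclusive = exactly half above 75%; inactive = most below 75%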;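 also: all wells also contain fluconazole at 8 µg/ml as a sub-toxic cotreatment; 0% = median of DMSO wells and 100% = median of geldanamycin control wells; wells of about 8 µL received 7.5 nL stock; the first replicate is given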
Ecoli rRNA inh: selective bacterial rRNA inhibition in E. coli | E. coli WT GFP vs humanized-ribosome RFP mutants, fluorescence, 24 h; stronger effect = lower value; DMSO median 0, no signal -100 | GFP signal change (wild-type ribosome), % (concentration not given with the values) | 350,000 tested, 1.6% active;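 active = significant combined selectivity score with lowered wild-type GFP, culture density cut under 30%, mutant RFP and density less affected; inactive = any of these conditions unmet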; also: one replicate is shown; some compounds called inactive have numbers as strong as hits
MLL AF4-AF9 inh: MLL-AF4/AF9 protein interaction inhibition. P42568. AlphaScreen, biotin-AF4 peptide binding to FLAG-AF9. inhibition, % at 10 µM. 350,000 tested, 0.47% active. AID 651704;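 active = every replicate reaching a set inhibition limit, whatever the replicate mean, cut at about 25% in these data; inconclusive = mean inhibition reaches that limit but some replicates miss it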;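 also: 0% = plate neutral control median and 100% = total signal loss; the record names both 10 and 1 µM as test concentration; the first replicate is given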
Target sequence (P42568 whole entry, looked up): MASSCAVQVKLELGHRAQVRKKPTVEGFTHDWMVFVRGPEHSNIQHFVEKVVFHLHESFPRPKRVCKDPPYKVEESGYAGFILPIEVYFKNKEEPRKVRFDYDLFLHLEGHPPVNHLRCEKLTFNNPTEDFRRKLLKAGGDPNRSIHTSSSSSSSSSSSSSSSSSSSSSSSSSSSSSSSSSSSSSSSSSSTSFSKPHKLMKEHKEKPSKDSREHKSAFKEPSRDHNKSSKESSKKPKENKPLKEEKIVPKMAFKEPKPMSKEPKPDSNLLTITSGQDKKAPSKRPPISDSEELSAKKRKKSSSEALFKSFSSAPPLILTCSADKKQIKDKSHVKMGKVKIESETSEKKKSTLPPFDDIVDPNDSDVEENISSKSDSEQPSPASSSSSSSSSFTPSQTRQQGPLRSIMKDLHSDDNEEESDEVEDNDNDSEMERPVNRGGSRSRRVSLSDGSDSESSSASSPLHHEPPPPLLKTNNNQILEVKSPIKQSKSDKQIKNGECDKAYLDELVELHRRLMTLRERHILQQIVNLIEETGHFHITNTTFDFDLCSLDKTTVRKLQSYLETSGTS
Ecoli rRNA inh OD600: recorded beside Ecoli rRNA inh, whose call it bears; OD600 change, %; measured here: OD600 growth;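 optical density of the mix in the first replicate; 0 = DMSO median and -100 = no signal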
Ecoli rRNA inh RFP: recorded beside Ecoli rRNA inh, whose call it bears; RFP signal change, %; measured here: RFP humanized mutant strains;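 first replicate; 0 = DMSO median and -100 = no signal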
* hit, by the source's call; ? = inconclusive; . = no result given. An excerpt. The share of hits here may be higher or lower than overall.

SMILES	Vif TR-FRET	Beta cell apopt	Bfl-1 A1 inh	T cruzi inh	RanGTP-Impb inh	Calb FLC	Ecoli rRNA inh	Ecoli rRNA inh OD600	Ecoli rRNA inh RFP	MLL AF4-AF9 inh
O=c1nc(SCc2ccc(Cl)cc2)nc(-c2ccccc2)[nH]1	.	1	0.0	-5	-2.2	5	-9	-14	-5.0	-4.7
Cc1nnc(NC(=O)CC(NC(=O)C(F)(F)F)c2ccccc2)s1 (stereo not given)	11%	-3	1.0	-8	-0.7	0	6	2	0.0	-1.0
CC(/C=N/NC(=O)c1ccccc1F)=C\c1ccccc1	-1%	5	-3.9	-2	2.1	10	-8	-7	-5.0	3.4
Cc1ccccc1-n1c(SCC(=O)c2c(N)n(C)c(=O)n(C)c2=O)nnc1-c1cccnc1	2%	-5	0.5	-12	-1.9	3	6	7	3.2	-3.3
O=C(NN1CCOCC1)c1ccc([N+](=O)[O-])cc1	.	-6	0.6	-9	-0.5	-3	3	3	-4.4	-3.2
Cc1cc(C)c(C(=O)COC(=O)c2ccc(NC(=O)CC#N)cc2)cc1C	-12%	-3	-1.1	7	0.1	-13	-12	-2	7.1	-62
COc1cc(/C=N/N=C/c2c[nH]c(=O)c(C#N)c2Nc2ccccc2)ccc1O	2%	-9	-0.2	0	2.3	-5	.	.	.	.
CCOC(=O)c1nc2sc3c(c2c(=O)[nH]1)CCC(C)C3 (stereo not given)	.	-5	0.5	-3	3.9	26	-1	0	0.8	-2.7
COCCn1c(-c2ccccc2)nc2ccccc21	.	-1	-1.6	5	2.7	-6	.	.	.	.
O=C(O)c1cc2n(n1)C(C(F)(F)F)CC(c1ccccc1)N2 (stereo not given)	9%	-3	0.2	-8	-0.6	4	.	.	.	.
O=[N+]([O-])c1ccc(-c2nnc(-c3ccccc3)c(N3CCOCC3)n2)cc1	?	8	-0.6	8	2.9	4	.	.	.	.
C=C1CN(CC(=O)OC)S(=O)(=O)c2ccccc21	.	-1	1.1	-12	4.0	25	6	8	2.4	3.0
Cc1[nH][nH]c(=O)c1C(c1ccc(-c2ccc(Cl)c(Cl)c2)o1)c1c(C)[nH][nH]c1=O	12%	-9	0.2	-28	0.2	-11	.	.	.	.
CCOC(=O)[C@@H]1[C@H]2COc3ccc(Br)cc3[C@@H]2N2C(=O)N(c3ccc(C(F)(F)F)cc3)C(=O)[C@@]12C	.	0	0.1	-5	0.2	24	0	3	-0.6	.
CCN(CC)c1ccc2c(cc1=O)[C@@H](NC)CCc1cc(OC)c(OC)c(OC)c1-2	-3%	39	0.7	35	-1.3	35	-2	11	0.6	1.8
COc1c(OC(C)=O)ccc(/C=C/c2ccc3cccc(OCc4ccccc4)c3n2)c1[N+](=O)[O-]	6%	3	-0.5	10	-0.2	-2	.	.	.	.
O=C(NCCCN1CCCC1)c1ccc2c(c1)N(Cc1ccccc1F)C(=O)c1ccccc1S2=O (stereo not given)	-3%	-7	-0.4	17	-0.8	-5	15	6	1.9	6.0
COc1cccc(C2C(C(=O)c3ccc(C)o3)=C(O)C(=O)N2c2cc(C)on2)c1 (stereo not given)	-14%	-1	-0.8	-27	6.2	-4	-2	-6	3.4	0.8
O=C(C[n+]1cc(-c2ccc(Cl)c(Cl)c2)n2c1CCC2)c1cccs1	-12%	.	-0.5	14	3.3	-2	-51*	-21*	-14*	5.7
COC(=O)/C=C1/SC(=Nc2ccc(Cl)c(Cl)c2)NC1=O	-2%	0	-0.2	-3	-2.7	0	0	-1	-0.6	-4.8
CC1CCCCC1NC(=O)c1nnc(Cc2ccc(Cl)cc2)o1 (stereo not given)	17%	-4	-0.3	2	-0.6	-12	4	9	0.7	-0.8
COc1cc(OC)cc(C(=O)Nc2nc(CC(=O)NCc3ccccc3OC)cs2)c1	-12%	7	-0.1	-10	-2.3	-4	-4	-17	7.1	0.1
CCn1c2ccccc2c2cc(NC(=O)Cc3ccc(S(=O)(=O)N4CCOCC4)s3)ccc21	14%	8	1.2	69*	?	7	.	.	.	.
O=C(CSc1nnc(-c2csc3c2CCCC3)o1)Nc1ccccc1	28%	2	-1.7	-8	1.2	17	-16	-38	13	-2.9
CCOC(=O)CSc1ccc(S(=O)(=O)N2CCC(C)CC2)cc1[N+](=O)[O-]	8%	.	-0.7	-5	0.6	6	11	12	0.5	-2.4

The list continues.
SMILES	Vif TR-FRET	Beta cell apopt	Bfl-1 A1 inh	T cruzi inh	RanGTP-Impb inh	Calb FLC	Ecoli rRNA inh	Ecoli rRNA inh OD600	Ecoli rRNA inh RFP	MLL AF4-AF9 inh
CN1CCN(C(=O)c2ccc(CS(=O)Cc3ccc(Cl)cc3)o2)CC1 (stereo not given)	-9%	-8	0.6	4	2.5	-9	8	12	-2.8	1.7
Cc1ccccc1OCC(O)CN1C(=O)c2ccccc2C1=O (stereo not given)	.	3	0.9	-21	-1.0	-10	-6	-5	-1.4	1.4
CN(Cc1nc(Cc2cccc(F)c2)no1)CC1CCOCC1	1%	-2	0.1	-16	5.4	-12	0	2	-1.7	1.4
CCOC(=O)/C(C#N)=C/c1ccc(-c2ccsc2C(=O)OC)o1	0%	0	0.2	11	4.1	32	.	.	.	.
CCC1CCCCN1CCCNC(=O)c1c(O)nc2c(C)cccn2c1=O (stereo not given)	.	-4	-0.1	4	2.3	10	-7	-11	-0.1	-0.7
Cc1ccc(-n2c(=S)sc3c(=O)n(-c4ccc(F)cc4)c(SCC(=O)O)nc32)cc1C	3%	.	0.7	-7	-0.8	-20	-40	-72	-26	1.1
C=CCC1(CC=C)CCCN1Cc1nc(COc2ccccc2)no1	10%	-8	0.7	30	4.7	-7	8	11	39	.
Cc1oc2c(CN3CCCC3)c(O)ccc2c(=O)c1-c1ccc(Br)cc1	-8%	-9	1.9	5	6.8	5	-28*	2.3*	12*	2.5
Cn1c(CO)cnc1SCC(=O)c1ccc(Br)cc1	-4%	3	0.0	-5	3.6	4	-21*	-13*	5.5*	-0.8
CCOC(=O)C1CCN(c2c(NCCC(C)C)c(=O)c2=O)CC1	6%	-5	-0.4	-20	-6.9	-2	6	2	-2.1	-97
Cc1csc2ncc(C(=O)N3CCc4ccccc43)c(=O)n12	.	1	1.1	-12	1.3	-3	4	4	-0.2	2.2
CCOC(=O)c1cc2c(=O)n3ccccc3nc2n(Cc2ccccc2)c1=N	-2%	-2	-0.3	-16	188*	0	3	10	-2.5	.
CN(Cc1ccon1)Cc1cn[nH]c1-c1ccc(-c2ccccc2)cc1	10%	-7	-1.4	5	5.2	?	.	.	.	-0.6
COc1ccc(CC(=O)NCC2CCCN(Cc3ccccc3Cl)C2)cc1 (stereo not given)	.	-12	0.2	47	-5.0	0	-4	4	-3.7	-1.8
Cn1c(=O)cc(SCC(=O)NCC2CCCO2)c2ccccc21 (stereo not given)	7%	-9	-0.5	-5	-2.6	36	.	.	.	.
CCN(Cc1nc2cc(Cl)ccc2c(=O)[nH]1)C(=O)c1cccc(NC(=O)c2cccs2)c1	-5%	5	-0.7	.	.	.	-2	-15	11	-6.1
O=C(N[C@@H](Cc1ccccc1)C(=O)N[C@@H](Cc1ccccc1)C(=O)O)OCc1ccccc1	.	4	-0.2	-13	0.6	-7	0	-3	-5.4	-2.4
O=C(CO/N=C/c1ccccc1)N1c2ccccc2Oc2ccccc21	-1%	-1	3.0	-5	-1.1	-1	.	.	.	.
COc1ccc(CCNC(=O)Cn2c(=O)n(-c3ccc(F)cc3)c(=O)c3sccc32)cc1OC	-4%	.	.	-2	-2.9	-12	12	5	4.1	-23
O=C(N/N=C/c1ccccc1F)c1cc2c(ccc3ccccc32)o1	-6%	0	0.5	-7	2.0	3	-4	5	-2.2	-2.8
O=C(COC(=O)Cc1ccc(F)cc1)Nc1ccc(Cl)cn1	-4%	-1	0.0	.	.	.	-3	-6	1.2	-0.7
CN(CC(=O)Nc1cccc(F)c1)C(=O)CCCc1c[nH]c2ccccc12	-17%	-3	1.5	.	.	.	-26*	-16*	-1.5*	6.0
O=C(NCc1cccnc1)Nc1cccc([N+](=O)[O-])c1	.	-3	0.5	-7	-12	-5	3	5	0.2	0.5
CC(=O)c1c(C)[nH]c(C(=O)Nc2ccc(Cl)c(S(=O)(=O)N3CCOCC3)c2)c1C	.	-15	-0.1	1	-2.7	7	.	.	.	.
O=C(NNC(=O)c1ccccc1F)c1ccc(S(=O)(=O)N2CCCCC2)cc1	-3%	0	-1.1	.	.	.	-5	-4	-1.4	-1.4

Complete entries, looked up by structure.
CCOC(=O)c1cc2c(=O)n3ccccc3nc2n(Cc2ccccc2)c1=N is entered as Vif TR-FRET: -2%; Beta cell apopt: -2; Bfl-1 A1 inh: -0.3; T cruzi inh: -16; RanGTP-Impb inh: 188*; Calb FLC: 0; Ecoli rRNA inh: 3; Ecoli rRNA inh OD600: 10; Ecoli rRNA inh RFP: -2.5; MLL AF4-AF9 inh: .
O=C(COC(=O)Cc1ccc(F)cc1)Nc1ccc(Cl)cn1 is entered as Vif TR-FRET: -4%; Beta cell apopt: -1; Bfl-1 A1 inh: 0.0; T cruzi inh: .; RanGTP-Impb inh: .; Calb FLC: .; Ecoli rRNA inh: -3; Ecoli rRNA inh OD600: -6; Ecoli rRNA inh RFP: 1.2; MLL AF4-AF9 inh: -0.7

Back to the main list, starting 2 compounds before the break.
SMILES	Vif TR-FRET	Beta cell apopt	Bfl-1 A1 inh	T cruzi inh	RanGTP-Impb inh	Calb FLC	Ecoli rRNA inh	Ecoli rRNA inh OD600	Ecoli rRNA inh RFP	MLL AF4-AF9 inh
CC(=O)c1c(C)[nH]c(C(=O)Nc2ccc(Cl)c(S(=O)(=O)N3CCOCC3)c2)c1C	.	-15	-0.1	1	-2.7	7	.	.	.	.
O=C(NNC(=O)c1ccccc1F)c1ccc(S(=O)(=O)N2CCCCC2)cc1	-3%	0	-1.1	.	.	.	-5	-4	-1.4	-1.4
CC(=O)Oc1ccccc1C(=O)Nc1ccccc1C(=O)N1CCCCC1	.	0	-1.4	-9	-1.3	-14	6	3	1.8	-1.0
CC1CCCC(C)N1C(=O)CSc1nnc(NC(=O)Cc2cccs2)s1 (stereo not given)	5%	0	-0.3	-12	7.4	-4	.	.	.	.
CSc1cc(-c2ccccc2)n(Cc2ccc(Cl)cc2Cl)c(=O)c1C#N	-1%	-2	0.3	-13	-1.2	1	.	.	.	.
Cc1nn(-c2ccccc2)nc1C(=O)c1c(C)[nH]n(-c2ccccc2)c1=O	10%	-4	-1.4	-29	3.8	-4	.	.	.	2.8
O=C(CCN1C(=O)c2ccccc2C1=O)Nn1cnnc1	25%	1	0.2	-19	2.3	-7	7	6	-3.7	-3.1
CN(C)S(=O)(=O)c1ccc(Cl)c(NC(=O)CSc2nnnn2-c2ccc(O)cc2)c1	.	.	.	0	-6.4	-4	-29*	-20*	-0.2*	2.3
CCOc1ccc(Br)cc1S(=O)(=O)Nc1cccnc1	.	-7	-0.1	8	-3.5	13	2	17	4.4	1.2

Screening data as filed in PubChem.
